# Source: PubChem BioAssay (National Center for Advancing Translational Sciences (NCATS))
# GLP1R ag: GLP-1 receptor (human) agonism; Potency, µM (titrated, usually from 45.6 µM), without a hit: at the highest dose activation, most hits filed as activators; 0.007% of 380,000 active; HEK293 GLP-1R CRE-luciferase, luminescence, 4-6 h; cells express a hypersensitive GLP-1R form; AID 624172; note: potency is the fitted concentration of half-maximal effect; % of control where 0% means no effect
# WRN inhibitor: inhibitors of human WRN helicase; WRN helicase unwinding, fluorescent forked duplex, kinetic; Potency, µM (titrated, usually from 114 µM), for the others: at the top dose activity change, negative = inhibition, hits mostly inhibitors; 0.46% of 360,000 active; AID 651768; note: potency is the fitted concentration of half-maximal effect; % is set by controls: 0 for no effect and ±100 for the full control effect; nearly all actives have a fitted effect of over 55% in size
# Target sequence (Q14191 whole entry, looked up): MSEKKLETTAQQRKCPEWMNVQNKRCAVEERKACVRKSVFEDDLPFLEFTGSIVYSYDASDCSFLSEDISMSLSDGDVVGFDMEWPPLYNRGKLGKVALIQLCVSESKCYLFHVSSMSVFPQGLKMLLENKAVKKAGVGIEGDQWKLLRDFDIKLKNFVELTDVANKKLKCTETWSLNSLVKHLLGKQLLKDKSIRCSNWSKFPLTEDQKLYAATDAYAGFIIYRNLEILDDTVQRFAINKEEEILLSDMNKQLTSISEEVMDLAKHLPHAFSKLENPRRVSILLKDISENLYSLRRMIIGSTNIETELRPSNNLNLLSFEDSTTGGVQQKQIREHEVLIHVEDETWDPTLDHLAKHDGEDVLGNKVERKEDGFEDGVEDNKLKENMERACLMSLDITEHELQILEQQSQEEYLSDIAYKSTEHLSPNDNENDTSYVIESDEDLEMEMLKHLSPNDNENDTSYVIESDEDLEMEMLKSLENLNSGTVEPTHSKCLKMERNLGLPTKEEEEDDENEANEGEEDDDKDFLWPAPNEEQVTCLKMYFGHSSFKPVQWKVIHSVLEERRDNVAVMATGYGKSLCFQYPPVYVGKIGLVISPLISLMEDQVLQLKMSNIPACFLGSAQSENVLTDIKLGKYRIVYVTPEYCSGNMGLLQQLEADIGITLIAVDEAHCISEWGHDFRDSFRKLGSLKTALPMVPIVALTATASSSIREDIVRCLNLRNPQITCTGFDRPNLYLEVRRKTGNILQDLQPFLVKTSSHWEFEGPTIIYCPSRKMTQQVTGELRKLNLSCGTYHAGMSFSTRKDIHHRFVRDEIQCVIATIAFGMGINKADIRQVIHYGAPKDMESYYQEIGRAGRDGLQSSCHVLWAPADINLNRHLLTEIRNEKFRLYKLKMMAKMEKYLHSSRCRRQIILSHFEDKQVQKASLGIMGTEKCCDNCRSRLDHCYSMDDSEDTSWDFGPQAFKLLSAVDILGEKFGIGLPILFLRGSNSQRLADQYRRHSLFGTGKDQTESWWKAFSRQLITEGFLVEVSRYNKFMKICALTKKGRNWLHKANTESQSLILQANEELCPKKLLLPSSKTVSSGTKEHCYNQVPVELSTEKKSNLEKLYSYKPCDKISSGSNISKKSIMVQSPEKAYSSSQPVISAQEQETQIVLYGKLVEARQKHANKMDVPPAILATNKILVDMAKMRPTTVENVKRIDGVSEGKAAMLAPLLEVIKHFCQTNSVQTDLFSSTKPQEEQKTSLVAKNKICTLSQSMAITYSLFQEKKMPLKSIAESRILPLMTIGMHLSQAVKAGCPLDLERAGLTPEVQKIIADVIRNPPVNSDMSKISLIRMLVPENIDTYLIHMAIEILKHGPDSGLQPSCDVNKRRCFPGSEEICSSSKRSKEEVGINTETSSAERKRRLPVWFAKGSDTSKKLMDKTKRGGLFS
#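 Fluorescence dequenching readout, ex 525 nm/em 598 nm, kinetic mode: forked duplex DNA (100 nM final) with adjacent fluorophore and quencher unwound by WRN (20 nM final) with 2 mM ATP. Compound preincubation 15 min, room temperature.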
# IL-2 act: IL-2 activation | activation, % (series mostly up to about 46 µM) | IL-2 activation reporter assay, cell-based qHTS; stimulated with anti-CD3/CD4/CD28 beads; in transgenic mouse T cells | 0.065% of 360,000 active; in the data active = activation above about 50%; inconclusive = mostly about 30% to 49%; note: 0% is about no effect
#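 EGFP and DsRed fluorescence is measured by plate cytometry in unstimulated transgenic mouse T cells exposed to compound for 60 minutes, then stimulated 18 hours at 37 degrees C with anti-CD3/anti-CD4 beads plus anti-CD28.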
# PLK1 PBD block: PLK1 (human) polo-box domain binding inhibition. Plk1 PBD binding of FITC phosphopeptide, fluorescence polarization. Potency, µM, for the others: max response, negative = inhibition, hits mostly inhibitors. 2.8% of 360,000 active. AID 720504; note: potency is the fitted concentration of half-maximal effect; series mostly up to about 57 µM; % is set by controls: 0 for no effect and ±100 for the full control effect; nearly all actives have a fitted effect of over 65% in size
# GLP1R inv ag: inverse agonists of human GLP-1 receptor; P43220; HEK293 GLP-1R CRE-luciferase, luminescence, 24 h; GLP-1R form is constitutively active; Potency, µM (highest dose often 38.3 µM), for inactives: at the highest dose activity change, negative = inhibition, actives largely listed as inhibitors; 1.6% of 410,000 active; AID 624417; note: potency is the fitted concentration of half-maximal effect; % is set by controls: 0 for no effect and ±100 for the full control effect; nearly all actives have a fitted effect of over 55% in size
#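 Inverse agonists were sought by their lowering of basal cAMP reporter luciferase output in HEK293 cells stably carrying constitutively active human GLP-1R, after 24 h compound treatment.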
# DRD3 antagonist: blocks the human D3 dopamine receptor. P35462. D3R cells, DiscoveRx beta-arrestin luminescence, antagonist mode; stronger effect = lower value. max response, negative = inhibition, %. 2.5% of 360,000 active; in the data active = max response below about -50%; inconclusive = no clear call, values can overlap the other calls; note: % is set by controls: 0 for no effect and ±100 for the full control effect; mostly tested at two doses, the higher about 12 µM
#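 Cells expressing the human receptor were seeded at 1500 cells/well, incubated overnight at 37 degrees C in 5% CO2, then exposed to library compounds with dopamine controls for 90 minutes at 37 degrees C before luminescent detection.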
# D3 ag: agonists of human D3 dopamine receptor. max activation, %. 0.58% of 410,000 active. AID 652048. P35462. D3R DiscoveRx beta-arrestin cells, luminescence, 90 min; in the data active = max activation above about 30%; note: 0% is about no effect; mostly tested at two doses, the higher about 12 µM
#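 Cells at 1500/well, incubated overnight, then treated with pinned compounds (dopamine as control) for 90 min at 37 degrees C. DiscoveRx reagent added for 30 - 60 minutes at room temperature; luminescence read.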
# GLP1R cytotox: cytotoxicity in counter-screen for GLP-1R inverse agonists | HEK293 cAMP-luciferase reporter cells, luminescence, 24 h | Potency, µM (series often up to 38.3 µM), inactives show at the top dose activity change, negative = inhibition, usual class: inhibitors | 0.13% of 410,000 active;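 note: loss of luciferase light is scored as toxicity; potency is the fitted concentration of half-maximal effect; % is set by controls: 0 for no effect and ±100 for the full control effect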
#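 Luminescence readout: signal drop marks cytotoxicity. Plated cells grew 12 h at 37 °C, 5% CO2, received 23 nL compound for 24 h, then got luciferase reagent, read after 12 min at RT.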
# An asterisk follows results filed as active; u = inconclusive; x = no result given; [ ] = another dose, or the depositor's remark. Unless noted, calls come from the whole dose curve; as a rule, active = well fitted curve in the direction sought with a large enough effect; inconclusive = small, poorly fitted or top-dose-only effect, or another doubt; inactive = no such curve, though single readings can be large; an effect the other way counts as inactive or inconclusive.
SMILES	GLP1R ag	WRN inhibitor	IL-2 act	PLK1 PBD block	GLP1R inv ag	DRD3 antagonist	D3 ag	GLP1R cytotox
CCOC(=O)c1cc(-c2ccccc2)sc1NC(=O)CCN1C(=O)c2ccccc2C1=O	-2%	4%	-2.0	-1%	11%	1	7	-3%
CC1CN=C(N(Cc2ccccc2)C(=O)Nc2ccccc2)S1 (centres undefined)	15%	-12%	0.3	3%	6%	7	-3	-16%
N#Cc1ccccc1OCC(=O)Nc1nc(-c2ccccn2)cs1	-6%	9%	1.2	27µM*	u	0	0	8%
Cc1ccc(OCc2nnc(SCC(=O)Nc3ccc4c(c3)OCCO4)n2Cc2ccco2)cc1	-3%	-6%	-0.3	-2%	u	13	2	-17%
O=C(CN1CCCN(S(=O)(=O)c2ccc(F)cc2)CC1)Nc1cccc(F)c1	9%	-6%	-3.9	-8%	u	-7	-7	0%
Cc1ccccc1CSc1nnc(NC(=O)Cc2cccs2)s1	2%	-31%	3.3	-12%	-12%	10	1	0%
CC(C)NC(=O)c1cc(-c2ccco2)nn1-c1ccc(Cl)cc1	7%	-20%	-0.5	-28%	-24%	-22	0	-10%
COc1ccc(NC(=O)c2c3c(nc4ccccc24)CCC3)cc1S(=O)(=O)N1CCOCC1	-1%	u	0.5	u	19%	-19	-3	-9%
COc1ccc(Cl)cc1NC(=O)CN(C)Cc1cccs1	26%	-6%	-0.7	2%	u	-13	-28	-13%
O=C(NCc1ccco1)c1nc2nc(-c3cccs3)cc(C(F)(F)F)n2n1	4%	u	-2.6	u	20%	-16	-5	88%[activator]

SMILES	GLP1R ag	WRN inhibitor	IL-2 act	PLK1 PBD block	GLP1R inv ag	DRD3 antagonist	D3 ag	GLP1R cytotox
CC1CCN(S(=O)(=O)c2cn(CC(=O)Nc3cccc(C#N)c3)cn2)CC1	-2%	-5%	-3.8	-7%	u	u	-26	-3%
COc1ccc(Cl)cc1NC(=O)C(C)OC(=O)Cn1cc(C(F)(F)F)ccc1=O (centres undefined)	-7%	-7%	-0.4	-3%	-5%	3	0	-9%
Cc1ccc(F)cc1NC(=O)c1ccc(NS(=O)(=O)c2ccc(Br)s2)cc1	6%	0%	0.4	-7%	u	u	-3	-15%
CN(C(=O)CSc1nncc2ccccc12)C1CCCCC1	-6%	6%	-0.4	-8%	2%	7	6	-7%
CC(C)[C@H](NC(=O)Cc1ccccc1)C(=O)OCc1cc(=O)n2c(n1)sc1ccccc12	22%	u	0.0	-26%	16%	21	3	-4%
CCCCNC(=O)COC(=O)c1c2c(nc3ccccc13)CCC2	8%	u	1.1	-21%	u	26	-5	u
O=C1CCCC(=O)C1=C1SCCCS1	-2%	-13%	-0.1	-5%	11%	25	-5	29%
O=C(CN1CCN(S(=O)(=O)c2ccc(F)cc2)CC1)NCC1(N2CCOCC2)CCCCC1	-3%	-2%	0.1	1%	2%	2	6	1%
O=C(O)c1nn2c(C(F)(F)F)cc(-c3cccs3)nc2c1Cl	6%	-17%	-0.7	2%	-12%	-1	-3	-19%
CCOC(=O)c1cc(N2CCCCC2)nc2ccccc12	1%	1%	-6.3	-2%	7.9µM*	21	4	225%[activator]

SMILES	GLP1R ag	WRN inhibitor	IL-2 act	PLK1 PBD block	GLP1R inv ag	DRD3 antagonist	D3 ag	GLP1R cytotox
O=C(CN1CCOCC1)Nc1ncc(Br)cc1Br	6%	-29%[57.1 µM]	-0.4	-5%	10%	0	-5	-3%
C=CCn1c(COc2ccc(F)cc2)nnc1SCC(=O)Nc1cccc(S(N)(=O)=O)c1	9%	3%	-0.3	-13%	-35%	8	8	-3%
CCCc1cc(=O)[nH]c(SCC(=O)Nc2sccc2C#N)n1	-8%	u	-3.6	-12%	-6%	-19	4	-1%
COc1ccc(OC)c(CC(=O)N2CCc3cc(OC)c(OC)cc3C2)c1	13%	13%	0.1	-20%	37%[activator]	-13	-9	2%
COc1ccc(Cl)cc1NC(=O)COC(=O)c1cc(C)oc1C	13%	4%	0.2	4%	-14%	6	9	19%
CCC(=O)N1C(=O)CCN(C(C)=O)c2ccccc21	-11%	6%	-0.4	3%	5%	9	2	2%
CCc1cc(C(=O)c2ccc(OC)cc2)c(NC(=O)CN2CCN(C)CC2)s1	18%	-22%	-0.2	-10%	4.5µM*	-8	-1	-21%
O=C(CSc1nncs1)Nc1ccc2c(c1)OCCO2	-11%	-24%	-0.3	-8%	7%	1	-18	13%
O=C(O)c1ccc(-n2nncc2-c2ccco2)cc1	1%	8%	-2.9	5%	4%	13	14	1%
CCc1ccc(N2C(=O)c3sc4nnc(C)c(=O)n4c3C2=O)cc1	-7%	9%	-1.1	-3%	-5%	u	0	-5%

SMILES	GLP1R ag	WRN inhibitor	IL-2 act	PLK1 PBD block	GLP1R inv ag	DRD3 antagonist	D3 ag	GLP1R cytotox
Cc1ccc(NC(=O)CNCc2cccs2)cc1Br	9%	-7%[57.1 µM]	0.2	4%	-11%	-28	-21	-7%
CCOc1ccc(NC(=O)CN(C)C(=O)c2cccnc2Sc2ccc(Cl)cc2)cc1OCC	1%	-15%	5.0	1%	-16%	8	0	2%
CC1CCN(S(=O)(=O)c2cn(CC(=O)Nc3ccc(OC(F)(F)F)cc3)cn2)CC1	-5%	-16%	-0.4	-5%	6%	6	4	0%
CC1(C)C(=O)Nc2ccccc2N1C(=O)COc1cccnc1[N+](=O)[O-]	6%	3%	-1.8	-1%	27%	-13	5	-9%
CCOc1ccccc1NC(=O)COC(=O)Cc1cccs1	-9%	-23%	0.9	-12%	26%	15	-1	3%
CC(=O)c1cccc(CN2CCC(CO)(Cc3ccccc3)CC2)c1	-1%	2%	1.0	-13%	-19%	-28	-15	5%
CC(C)Cc1nnc(NC(=O)Cc2cccs2)s1	1%	u	-1.7	-20%	12%	-3	-16	-1%
O=C(CSc1ccc2nnc(CCNC(=O)c3ccccc3)n2n1)Nc1ccccc1F	0%	-4%	-0.6	-2%	2%	12	2	1%
O=C(C(c1ccccc1)N1CCOCC1)N1CCOCC1 (centres undefined)	6%	-13%	-0.2	-2%	1%	-26	2	-10%
COc1ccc(Nc2nc(N)c(C(=O)c3ccc(OC)cc3)s2)cc1	27%	0%	0.2	-5%	u	-24	-7	-7%

SMILES	GLP1R ag	WRN inhibitor	IL-2 act	PLK1 PBD block	GLP1R inv ag	DRD3 antagonist	D3 ag	GLP1R cytotox
COc1ccc(/C(O)=C2/C(=O)C(=O)N(CCN(C)C)C2c2ccc(OC)c(OC)c2)c(C)c1 (centres undefined)	-1%	7%	0.5	-2%	-2%	0	3	-3%
Cc1sc2nc(SCC(=O)Nc3cccc(S(N)(=O)=O)c3)[nH]c(=O)c2c1C	0%	u	-0.9	24µM*	7%	2	-11	-11%
O=C(O)c1cc2nc(-c3ccccc3)cc(C(F)(F)F)n2n1	2%	-13%	-1.3	-8%	4%	-10	0	-7%
CCc1cc2c(COC(=O)c3cc(S(=O)(=O)N4CCOCC4)ccc3F)cc(=O)oc2cc1O	29%	-5%	0.0	-4%	-17%	10	9	195%[activator]
Cc1ccc(NC(=O)CSc2nncc3ccccc23)cc1	19%	-9%[57.1 µM]	-0.4	-8%	26%	10	6	-3%
Cc1cc2c(cc1C)-n1nnnc1C(N1CCN(c3ccccc3F)CC1)C(=O)N2 (centres undefined)	x	-1%	0.6	-5%	4%	20	5	-3%
O=C(O)COCC(=O)Nc1ccc(OCCc2ccccc2)cc1	-2%	3%	-0.5	-15%	21%	4	4	3%
CCOC(=O)c1c(NC(=O)COC(=O)Cn2cnc3ccccc32)sc2c1CCC(C)C2 (centres undefined)	9%	-17%	-0.4	-14%	6%	0	12	1%
Cc1ccc(N2CC(C(=O)Nc3nnc(SCCC4OCCO4)s3)CC2=O)cc1C (centres undefined)	0%	1%[11.6 µM]	0.0	-23%	25%	10	3	-3%
O=C(COc1ccc(-c2nnco2)cc1)NCc1ccccc1Cl	6%	-8%	0.0	1%	7%	-8	0	-4%

SMILES	GLP1R ag	WRN inhibitor	IL-2 act	PLK1 PBD block	GLP1R inv ag	DRD3 antagonist	D3 ag	GLP1R cytotox
CCOC(=O)N1CCN(C(=O)c2ccc3c(=O)n(CCOC)c(=O)[nH]c3c2)CC1	-6%	-21%	0.8	-4%	43%[activator]	-6	1	4%
O=C(c1ccncc1)N1CCN(S(=O)(=O)c2cccc(Cl)c2)CC1	7%	-1%	-1.7	-3%	0%	-3	7	-5%
CCOC(=O)Cn1c(=O)n(C2CCCC2)c(=O)c2ccccc21	0%	-1%	0.6	-9%	u	12	7	-1%
O=C(CN1CCN(S(=O)(=O)c2ccc(F)cc2)CC1)NCc1cccs1	14%	-2%	0.4	2%	0%	7	3	-1%
O=C(CN1CCN(Cc2ccc(F)cc2Cl)C1=O)NCc1cccs1	9%	6%	-0.5	-13%	-25%	3	9	3%
CCOC(=O)CSc1cc(=O)n(CC)c2ccccc12	27%	-11%	-1.2	0%	2%	25	-1	8%
COc1ccc(Cl)cc1NC(=O)COC(=O)c1ccc(Br)o1	12%	0%	-0.1	-3%	4%	11	12	-6%

# Gathered by group, the compounds so far containing two or more sulfur atoms (ten)
SMILES	GLP1R ag	WRN inhibitor	IL-2 act	PLK1 PBD block	GLP1R inv ag	DRD3 antagonist	D3 ag	GLP1R cytotox
Cc1ccccc1CSc1nnc(NC(=O)Cc2cccs2)s1	2%	-31%	3.3	-12%	-12%	10	1	0%
Cc1ccc(F)cc1NC(=O)c1ccc(NS(=O)(=O)c2ccc(Br)s2)cc1	6%	0%	0.4	-7%	u	u	-3	-15%
O=C1CCCC(=O)C1=C1SCCCS1	-2%	-13%	-0.1	-5%	11%	25	-5	29%
C=CCn1c(COc2ccc(F)cc2)nnc1SCC(=O)Nc1cccc(S(N)(=O)=O)c1	9%	3%	-0.3	-13%	-35%	8	8	-3%
CCCc1cc(=O)[nH]c(SCC(=O)Nc2sccc2C#N)n1	-8%	u	-3.6	-12%	-6%	-19	4	-1%
O=C(CSc1nncs1)Nc1ccc2c(c1)OCCO2	-11%	-24%	-0.3	-8%	7%	1	-18	13%
CC(C)Cc1nnc(NC(=O)Cc2cccs2)s1	1%	u	-1.7	-20%	12%	-3	-16	-1%
Cc1sc2nc(SCC(=O)Nc3cccc(S(N)(=O)=O)c3)[nH]c(=O)c2c1C	0%	u	-0.9	24µM*	7%	2	-11	-11%
Cc1ccc(N2CC(C(=O)Nc3nnc(SCCC4OCCO4)s3)CC2=O)cc1C (centres undefined)	0%	1%[11.6 µM]	0.0	-23%	25%	10	3	-3%
O=C(CN1CCN(S(=O)(=O)c2ccc(F)cc2)CC1)NCc1cccs1	14%	-2%	0.4	2%	0%	7	3	-1%

# These rows are one share of the data; the hit share may differ from the screen's.
